UCH37 DUB inh – inhibitors of human deubiquitinating enzyme UCH37; purified proteasome/UCH37, Ub-AMC cleavage fluorescence; actives 0.33% (n = 330,000); inhibition, % (test concentration not listed); Q9Y5K5;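 active = mean of two replicates above 20%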;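 also: 0% = compound-free wells with enzyme and 100% = wells lacking proteasome; stock transfer was 100 nL into about 20 µL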
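Assay system: Proteasome-bound UCH37. Buffer or medium: pH 7.4 Tris-HCl (50 mM) with ovalbumin, ATP-MgCl2, DTT. Incubation: 30 min preincubation with enzyme, 25 min cleavage at room temperature. Measured by: fluorescence, ex 355 nm, em 460 nm. Read-out basis: percent inhibition. Control set: wells without proteasome as full block, compound-free enzyme plus substrate as uninhibited.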
FGF22 binding – FGF22 (human) thermal shift binding; recombinant FGF22 thermal shift, SYPRO orange fluorescence; percent of sucrose octasulfate shift, DMSO zero; calls only at 9.99 µM; Q9HCT0; actives 1.5% (n = 340,000);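 active = melting point raised past a set limit in the mean and every replicate; inconclusive = no clear call; three in four hits are not shown here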
HNF4A DNA FP – change in binding of human HNF4 alpha to DNA. activity change, % at 10 µM. AID 1224865. HNF4a-FITC DNA binding, fluorescence polarization, 1 h. actives 0.3% (n = 360,000); in the data active = activity change above about 30%, passing the limit was not always enough;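 also: controls were the assay level and a saturating level of protein; the project sought stronger binding though the title names inhibitors; some compounds called inactive have numbers as strong as hits; positive values seem to mean higher polarization but the record does not say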
LANA-H2B inh – blocks KSHV LANA binding to histone H2A/H2B | actives 0.6% (n = 320,000) | inhibition, % (test concentration not listed) | Q9QR71 | cell-free LANA-H2A/H2B peptide, fluorescence polarization; in the data active = inhibition mostly above about 10%, no sharp cut-off; inactive = mostly below about 6.7%;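 also: stock transfer was 7.5 nL into about 10 µL; 0% = median of vehicle wells and 100% = median of positive control wells; one replicate is shown; the record names a cut of 25% in any replicate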
Target sequence (Q9QR71 whole entry, looked up): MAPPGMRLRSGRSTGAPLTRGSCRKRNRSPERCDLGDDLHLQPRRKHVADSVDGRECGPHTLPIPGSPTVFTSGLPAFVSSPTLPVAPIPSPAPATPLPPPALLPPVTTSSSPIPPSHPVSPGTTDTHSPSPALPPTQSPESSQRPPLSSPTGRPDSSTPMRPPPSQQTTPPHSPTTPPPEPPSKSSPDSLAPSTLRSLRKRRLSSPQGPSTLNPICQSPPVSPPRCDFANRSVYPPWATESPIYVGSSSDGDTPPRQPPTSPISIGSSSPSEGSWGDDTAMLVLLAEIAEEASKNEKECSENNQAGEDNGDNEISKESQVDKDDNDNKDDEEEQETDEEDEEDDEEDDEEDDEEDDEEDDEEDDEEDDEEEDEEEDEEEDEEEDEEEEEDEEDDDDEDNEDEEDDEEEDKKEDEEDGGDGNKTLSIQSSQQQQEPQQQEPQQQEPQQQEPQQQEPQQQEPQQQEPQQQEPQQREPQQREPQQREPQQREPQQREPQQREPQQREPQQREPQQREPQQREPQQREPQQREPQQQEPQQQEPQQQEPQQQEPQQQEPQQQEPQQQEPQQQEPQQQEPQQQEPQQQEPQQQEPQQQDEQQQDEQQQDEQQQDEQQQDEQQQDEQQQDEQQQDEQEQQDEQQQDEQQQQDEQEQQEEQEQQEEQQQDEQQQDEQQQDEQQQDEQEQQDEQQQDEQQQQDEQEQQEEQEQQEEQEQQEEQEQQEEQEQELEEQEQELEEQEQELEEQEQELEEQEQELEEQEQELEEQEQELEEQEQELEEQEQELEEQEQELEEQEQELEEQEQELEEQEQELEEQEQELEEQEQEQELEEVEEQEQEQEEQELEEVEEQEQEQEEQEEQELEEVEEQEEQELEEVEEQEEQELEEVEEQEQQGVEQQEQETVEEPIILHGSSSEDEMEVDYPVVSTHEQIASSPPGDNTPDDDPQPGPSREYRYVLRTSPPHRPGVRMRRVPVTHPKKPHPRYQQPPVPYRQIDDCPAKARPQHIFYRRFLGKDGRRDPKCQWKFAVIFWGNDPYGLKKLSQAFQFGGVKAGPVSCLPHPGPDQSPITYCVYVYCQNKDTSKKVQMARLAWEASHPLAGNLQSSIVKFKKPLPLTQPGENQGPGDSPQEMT
E coli growth – blocks Escherichia coli growth; OD600, 23 h; active compounds read low; OD600 absorbance (test concentration not listed); actives 0.21% (n = 330,000);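 active = OD600 absorbance below the run mean of sample wells minus 3.6 SD, in any replicate, cut at about 0.56 in these data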;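 also: stock transfer was 300 nL into about 60 µL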
ALR H2O2 inh – human ALR oxidase inhibition via reduced H2O2. P55789. purified ALR, DTT oxidation, H2O2 HRP-luminol luminescence. inhibition, % (no concentration beside the values). actives 3.8% (n = 290,000);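 active = mean and each replicate at 75% or more; inconclusive = only one of the two met; inactive = neither met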;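 also: stock transfer was 7.5 nL into about 7.5 µL; 0% = neutral wells and 100% = wells with inactivated enzyme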
B2AR ag – human beta-2 adrenergic receptor agonism by FAP | Am2.2-beta2AR cells, FAP receptor internalization, flow cytometry; reference of the scale not given here | actives 0.43% (n = 340,000) | AID 504454 | response, % (no concentration beside the values);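 active = response above a set limit, near 3 SD of response in nonfluorescent compounds, cut at about 42% in these data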;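 also: stock transfer was 100 nL into about 11 µL; a reference agonist was the positive control; negative values mostly stem from fluorescent compounds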
Starred values were filed as active, the others as inactive; i = inactive; ? = inconclusive; . = no result given.

SMILES	UCH37 DUB inh	FGF22 binding	HNF4A DNA FP	LANA-H2B inh	E coli growth	ALR H2O2 inh	B2AR ag
O=C(N/N=C\c1ccco1)Nc1cccc(Cl)c1	.	i	1.6	-0.8	.	-1	-1
O=C(CSCCS(=O)(=O)c1ccc(Cl)cc1)Nc1ccccc1	2.7	i	1.2	-1.8	0.66	-2	2
Cc1nn(C)cc1CN(C)C(=O)c1cc(COc2ccc(F)cc2F)on1	0.8	i	-0.9	0.2	0.66	0	-2
CCOC(=O)c1cc(-c2ccccc2)sc1NC(=O)CSc1nncs1	1.5	.	-5.4	3.5	0.69	.	-7
Cc1ccc(S(=O)(=O)NCC(c2ccco2)N2CCOCC2)cc1 (centres undefined)	-0.2	.	-0.2	-2.0	0.67	-4	-9
CN(CCO)c1cc(N2CCN(C(=O)c3ccco3)CC2)c2nonc2c1[N+](=O)[O-]	15	i	14	0.8	0.72	.	-21
CCN(CCNC(=O)C1CCCN(S(=O)(=O)c2cnc[nH]2)C1)c1ccccc1 (centres undefined)	9.4	i	-4.6	0.3	0.76	98*	5
O=C(CC(c1ccccc1O)N1CCCCC1)N1CCCCC1 (centres undefined)	0.7	.	0.8	6.7	0.66	6	-15
CCCCCC(=O)c1c(C)[nH]c(C(=O)OCC)c1C	5.4	.	0.0	0.8	0.72	-4	-12
CC1=CC(=O)C(C(C)=Nc2ccccc2Cl)C(=O)O1 (centres undefined)	3.7	i	0.3	-1.9	0.67	-6	-11
COc1ccccc1CN1CC(C(=O)N(C)CCc2nc3ccc(F)cc3[nH]2)CCC1=O (centres undefined)	3.2	i	-0.1	-3.8	0.71	-7	5
CCN(CCCNC(=O)C1CCC(=O)N1C1CCCC1)c1cccc(C)c1 (centres undefined)	-1.8	.	1.0	-0.1	0.69	.	1
O=C1Nc2ccc(F)cc2C12Nc1ccccc1-c1nnc(SCc3ccccc3)nc1O2 (centres undefined)	2.5	i	-4.5	-0.3	0.68	-1	2
O=C(Nc1cc(S(=O)(=O)N2CCCC2)ccc1OCC(F)(F)F)c1ccccc1F	.	.	-0.9	2.1	.	-33	-11
O=S(=O)(/N=C(/Nc1ccccc1)C(F)(F)F)c1ccccc1	.	.	2.9	-5.8	.	-11	-5
CN(C(=O)c1cccc(NC(=O)Cc2ccc(NC(=O)C3CCN(C(=O)C4CCCCC4)CC3)cc2)c1)C1CCC1	.	.	0.6	.	.	.	-12
Cc1cc(-c2ccc(Cl)cc2Cl)c(C#N)c(=O)[nH]1	-43	i	-5.4	-2.7	0.7	-1	3
COc1ccc(N2C(=O)C3CCCN3C2=O)cc1 (centres undefined)	1.7	.	0.4	-3.4	0.7	-7	-5
COc1cc2c(cc1NC(=O)COC(=O)c1ccc(C(C)(C)C)cc1)oc1ccccc12	-71	.	-3.8	-6.0	0.71	1	-4
CCOC(=O)C1=C(C)OC2(O)c3ccccc3C(=O)C12O (centres undefined)	79*	i	1.1	-2.9	0.65	26	-10
O=C(CN1CCOc2ccccc21)N1CCC(Cc2ccccc2)CC1	2.5	i	7.6	1.8	0.72	98*	9
Cc1c(OC(C)C(=O)NCCCN2CCOCC2)ccc2c3c(c(=O)oc12)CCC3 (centres undefined)	-20	i	2.1	7.3	0.67	1	18
Clc1ccc2oc(-c3cccnc3NCc3ccccc3)nc2c1	-415	.	4.3	0.4	0.75	-12	1
COc1cc2cc(Oc3ccc4ccc(=O)oc4c3)c(=O)oc2cc1O[C@@H]1O[C@H](CO)[C@@H](O)[C@H](O)[C@H]1O	-15	.	-27	4.1	.	40	8
CC(C)C[C@H](NC(=O)c1nc[nH]c1C(=O)NC1CCN(C(=O)OC(C)(C)C)CC1)C(=O)OCc1ccccc1	2.2	i	-1.2	-0.5	.	-1	16
Following part:
SMILES	UCH37 DUB inh	FGF22 binding	HNF4A DNA FP	LANA-H2B inh	E coli growth	ALR H2O2 inh	B2AR ag
Cc1ccccc1NC(=O)CN1C(=O)COc2ccc(Cl)cc21	1.8	i	2.3	-3.0	0.72	.	-1
CCOc1ccc(CSC(=N)N)cc1[N+](=O)[O-]	3.8	.	2.2	-1.1	0.72	98*	6
C/C(=N\NC(=O)c1ccccc1)c1ccc(N2CCCCC2)cc1	.	i	2.0	4.0	.	33	3
COc1ccc(C2c3[nH]c4ccccc4c3C[C@H]3C(=O)N(c4ccccc4C(=O)NCCN4CCOCC4)C(=O)N23)cc1 (some centres undefined)	0.4	i	-2.4	-5.3	0.75	-6	-1
COC(=O)c1ccccc1NC(=S)N1CCC(N2CCCCC2)CC1	1.4	i	-5.9	-4.9	0.68	-14	1
CCC(OC(=O)c1nsc(Cl)c1Cl)C(=O)NCC1CCCO1 (centres undefined)	1.1	i	2.5	-0.5	0.69	-1	-1
Cc1cccc(-c2cc(C(=O)Nc3ccc4c(c3)OCCO4)c3ccccc3n2)c1	2.1	.	1.2	-3.8	0.73	-8	17
CCCSc1nc(C)cc(C)c1S(C)(=O)=O	3.4	i	1.4	-1.6	0.66	2	0
O=C(CNC(=O)c1ccccc1)OC1CCCCC1	2.0	i	3.8	-5.7	0.71	2	-3
Cc1ccc(C)c(N2CCN(C(=O)CCC(=O)N3CCOc4ccc(Cl)cc43)CC2)c1	2.8	i	2.8	-1.0	0.77	-7	17
COc1cc(-c2c(C#N)c(=O)[nH]c3c2c(C)nn3-c2ccccc2)ccc1O	-30	.	2.2	3.1	0.69	99*	-3
Cc1ccc(CS(=O)Cc2ccc(C(=O)NCC(C)c3ccccc3)o2)cc1 (centres undefined)	6.1	i	-1.2	3.9	0.69	-4	2
c1ccc(Cn2nnc3c(N4CCc5ccccc5C4)ncnc32)cc1	1.4	.	-1.5	6.5	0.67	6	1
O=[N+]([O-])c1ccccc1S(=O)(=O)NC1CCCC1	0.9	i	4.8	-2.1	0.65	-7	1
Cc1ccccc1NC(=O)c1ccc(Nc2c([N+](=O)[O-])cc([N+](=O)[O-])c3ccccc23)cc1	0.5	i	-1.6	0.3	0.72	.	11
CC(=O)NCC(=O)OCC(=O)Nc1ccc(C(C)=O)cc1	3.0	.	-0.6	-4.2	0.71	-2	-2
Cc1ccc(Oc2c(C)nc(-c3ccccc3)[nH]c2=O)cc1	1.6	i	2.9	-0.9	0.71	0	2
COc1ccc(C(=O)C(/C=N/O)=N/Nc2ccc(F)cc2)cc1	.	i	2.7	-1.0	.	8	-7
Cc1nc2cc(NCc3ccc(Cl)cc3)ccc2n1C	-2.4	i	5.4	1.2	0.64	?	8
CCCCNC(=O)NS(=O)(=O)c1ccc(C(=O)OC(C)C)o1	5.2	.	-5.5	-3.4	0.71	-4	-2
Cc1ccc(S(=O)(=O)NC(=NC2CCCCC2)c2ccc(F)cc2)cc1	2.0	i	4.7	1.9	0.67	-2	-14
Cn1c(=O)c2c(nc(NCCc3ccccc3)n2Cc2ccccc2)n(C)c1=O	2.1	.	1.1	-4.2	0.66	2	0
CCOC(=O)c1c(-c2ccc(OC)cc2)oc2ccc(OCC(N)=O)cc12	i	i	-0.7	6.3	0.7	-1	8
O=C(Nc1ccncc1)c1cncc(Br)c1	1.6	.	5.2	9.1	0.71	-3	-1
Cc1noc(C(=O)Nc2c(C)nn(Cc3ccccc3)c2C)c1Cl	7.1	i	-4.0	-0.8	0.72	-5	-6

Four entries out of the list above, arranged by the value under UCH37 DUB inh, smallest number first.
| SMILES | UCH37 DUB inh | FGF22 binding | HNF4A DNA FP | LANA-H2B inh | E coli growth | ALR H2O2 inh | B2AR ag |
| --- | --- | --- | --- | --- | --- | --- | --- |
| O=[N+]([O-])c1ccccc1S(=O)(=O)NC1CCCC1 | 0.9 | i | 4.8 | -2.1 | 0.65 | -7 | 1 |
| Cc1ccc(C)c(N2CCN(C(=O)CCC(=O)N3CCOc4ccc(Cl)cc43)CC2)c1 | 2.8 | i | 2.8 | -1.0 | 0.77 | -7 | 17 |
| CCCSc1nc(C)cc(C)c1S(C)(=O)=O | 3.4 | i | 1.4 | -1.6 | 0.66 | 2 | 0 |
| Cc1ccc(CS(=O)Cc2ccc(C(=O)NCC(C)c3ccccc3)o2)cc1 (centres undefined) | 6.1 | i | -1.2 | 3.9 | 0.69 | -4 | 2 |

(listing goes on)
SMILES	UCH37 DUB inh	FGF22 binding	HNF4A DNA FP	LANA-H2B inh	E coli growth	ALR H2O2 inh	B2AR ag
N#C/C(=C\c1ccc2c(c1)OCCO2)C(=O)NC1CCCCC1	-8.7	i	-0.2	-3.0	0.67	56	5
O=C(Nc1ccccc1N1CCCC1)c1cccnc1Cl	3.3	.	-0.6	1.9	0.67	50	-11
Cc1ccc(-c2nc3c(cnn3-c3ccccc3)c(=O)o2)cc1	-78	i	-1.0	2.5	0.69	-3	-1
Cc1onc(-c2c(F)cccc2Cl)c1C(=O)OCc1nnc(-c2ccccc2)o1	3.5	i	3.0	6.0	0.7	1	-10
CC1CCN(CCCNC(=O)CN2C(=O)CSc3ccc(S(=O)(=O)N4CCCCC4)cc32)CC1	1.3	i	1.6	-1.1	0.61	-39	0
CCCC(=O)Nc1ccc(N2CCN(C(=O)c3ccccc3C)CC2)cc1	-0.1	.	1.7	-1.2	0.77	1	1
CC(C)OC(=O)CSc1nnc(CNc2ccc(Cl)cc2)n1Cc1ccccc1	1.3	.	-0.6	0.3	0.72	23	9
O=C(Cc1ccc(Cl)cc1)Nc1cccc(S(=O)(=O)N2CCCCC2)c1	3.8	i	6.0	-2.1	0.65	-3	-6
CN(C)c1ccc(/C=N/n2c(C3CCCCC3)n[nH]c2=S)cc1	.	i	3.0	0.3	.	5	3
CC(C)CN(C(=O)COc1cccc(-n2cnnn2)c1)C1CCS(=O)(=O)C1 (centres undefined)	.	i	-4.2	7.3	.	1	-4
COCc1cc(C)nc(N/N=C/c2ccc(Cl)c(Cl)c2)c1C#N	.	i	3.1	-9.2	.	56	5
O=S(=O)(c1cccc2nsnc12)N1CCN(c2ncccn2)CC1	0.4	.	0.7	-0.7	0.76	6	-12
CC(=O)Nc1ccc(C(C#N)c2ccccc2)cc1 (centres undefined)	-0.7	i	3.2	-3.9	0.65	-7	19
Cc1[nH]c(=O)c(C(=O)/C=C/c2ccccc2)c2c1CCCC2	0.8	.	4.5	-3.3	0.72	34	13
Brc1ccc(C2=Nn3cnnc3SC2)cc1	1.9	i	1.8	-2.6	0.71	.	-4
Cc1nc(-c2ccccc2)sc1-c1nc(-c2ccncc2)ncc1S(=O)(=O)c1ccccc1	-10	.	-1.5	4.1	0.71	0	1
Cn1nnnc1SCCOc1ccc(C#N)cc1	4.6	.	0.1	0.1	0.7	-4	2
COc1ccc(NC(=O)c2cc([N+](=O)[O-])ccc2N2CCCCC2)cc1OC	6.6	i	0.6	2.7	0.72	-6	1
CCCNC(=O)C(=O)Nc1ccc2c(c1)N(S(=O)(=O)c1cccs1)CCC2	4.8	i	4.0	-1.8	0.67	.	-13
COc1ccc(CCNC(=O)CNCC(c2ccccc2)N(C)C)cc1OC (centres undefined)	3.4	i	0.7	-1.3	0.69	.	5
CC(C)C(=O)NC(=S)Nc1ccc(S(=O)(=O)Nc2ccccc2)cc1	5.2	.	-5.4	-8.7	0.66	-10	4
COC(=O)C1(c2ccccc2)NC(c2cccs2)C2C(=O)N(c3ccccc3)C(=O)C21 (centres undefined)	1.5	.	-2.6	-3.5	0.74	-8	-2
O=C(Nc1ccc(F)c(F)c1)C1CCN(S(=O)(=O)c2cccc3nonc23)CC1	0.3	i	2.9	-1.2	0.64	-6	7
CCOc1ccc(CC(=O)N/N=C(\C)c2cccnc2)cc1OCC	.	i	-0.2	-6.1	.	-20	0
COC(=O)c1cc2sccc2n1Cc1ccc(C)cc1	0.9	.	-0.5	-1.8	0.67	0	2
CCOC(=O)C1=NN(c2ccc(Cl)cc2)/C(=C/C2=NCCc3cc(OC)c(OC)cc32)S1	-9.2	.	-0.6	1.2	0.67	26	8
Cc1ccn2cc(-c3cccc([N+](=O)[O-])c3)nc2c1	3.2	i	-1.6	3.3	0.69	91*	-5

These rows are one share of the data (hit frequency here may not be typical).
